# Screens from PubChem.
# Cruzain noTriton: cruzain (T. cruzi) inhibition without detergent. purified cruzain, Z-FR-AMC fluorescence, no detergent. Potency, µM, for the others: max response, negative = inhibition, actives largely listed as inhibitors. 2.3% of 200,000 active. AID 1476; active means well fitted curve in the direction sought with a large enough effect; inconclusive means small, poorly fitted or top-dose-only effect, or another doubt; inactive means no such curve, though single readings can be large; an effect the other way counts as inactive or inconclusive;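 further: plate controls were enzyme without inhibitor for no effect and buffer without enzyme for full effect; nearly all actives have a fitted effect of over 40% in size; top concentration of the series not given in the record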
# Target sequence (P25779 123-467 limits assumed): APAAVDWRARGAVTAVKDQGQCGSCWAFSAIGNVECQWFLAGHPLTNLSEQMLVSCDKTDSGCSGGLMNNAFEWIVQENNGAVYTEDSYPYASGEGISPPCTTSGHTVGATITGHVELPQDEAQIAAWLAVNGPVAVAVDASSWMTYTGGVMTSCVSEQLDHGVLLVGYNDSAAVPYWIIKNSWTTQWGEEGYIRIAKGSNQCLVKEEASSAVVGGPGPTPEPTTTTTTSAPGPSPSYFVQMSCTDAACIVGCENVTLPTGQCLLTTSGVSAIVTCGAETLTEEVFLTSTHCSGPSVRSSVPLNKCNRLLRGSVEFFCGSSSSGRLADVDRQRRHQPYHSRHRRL
#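 Purified cruzain at 1.5 nM, pre-incubated 15 min with compound at room temperature in 100 mM sodium acetate pH 5.5, 5 mM DTT, 0.00005% Triton X-100. Reaction started with 2 uM Z-FR-AMC; AMC fluorescence increase over 60 s gives rate.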
# 2A StopGo: FMDV 2A StopGo reporter, luciferase signal. human cells with a luciferase reporter of 2A StopGo recoding; control for the full effect not named in the record. Potency, µM (doses to about 57.9 µM), for the others: at the top dose signal change, negative = less light. 1.2% of 410,000 active. AID 1159524; active = well fitted falling curve with a large enough effect; inconclusive = small, poorly fitted or top-dose-only effect; inactive = no such curve, though single readings can be large or run the other way; tested in HEK293T cells; further: on the % scale 0 is the no-effect control and ±100 the full control effect; nearly all actives have a fitted effect of over 45% in size; luciferase light after 4 h
# NS1 function inh: blocks influenza NS1 protein function; S. cerevisiae slowed by influenza A NS1, growth recovery by OD600; Potency, µM (top dose mostly 46.1 µM), for inactives: top-dose activity, positive = more growth; 0.4% of 270,000 active; further: actives are rising curves; nearly all actives have a fitted effect of over 50% in size
#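 Compounds were scored for reversing the slow growth caused by influenza A NS1 in S. cerevisiae, measured by optical density at 600 nm. Assay medium contained 2% galactose at pH 6.0; NS1-free yeast of the same strain were the positive control.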
# SARS PLpro yeast: SARS-CoV PLP inhibition in yeast; S. cerevisiae expressing SARS-CoV PLpro, growth rescue; control for the full effect not named in the record; Potency, µM (titrated, usually from 32.9 µM), for the others: top-dose activity, positive = growth rescue; 0.19% of 330,000 active; AID 485353; further: 0% is about no effect; nearly all actives have a fitted effect of over 55% in size; growth read by luminescence after 48 h
# Cruzain inh Det: blocks cruzain activity in presence of Triton detergent; P25779; purified cruzain, Z-FR-AMC fluorescence, 0.01% Triton; Potency, µM, without a hit: max response, negative = inhibition, usual class: inhibitors; 0.43% of 200,000 active; AID 1478; active means well fitted curve in the direction sought with a large enough effect; inconclusive means small, poorly fitted or top-dose-only effect, or another doubt; inactive means no such curve, though single readings can be large; an effect the other way counts as inactive or inconclusive;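 further: plate controls were neutral wells for no effect and buffer without enzyme for full effect; nearly all actives have a fitted effect of over 40% in size; top concentration of the series not given in the record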
#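 Purified cruzain (1.5 nM final) was preincubated with compounds for 15 min at room temperature in 100 mM sodium acetate pH 5.5, 5 mM DTT, 0.01% Triton X-100. Reaction started with 2 uM Z-FR-AMC; AMC fluorescence change over 60 s gave activity.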
# Lassa entry inh: Lassa virus entry inhibition | Lassa virus pseudotype entry inhibition, cell reporter; control for the full effect not named in the record | 1.2% of 300,000 active | Potency, µM (titrated, usually from 37.9 µM), inactives show top-dose activity change, negative = inhibition, most hits filed as inhibitors; active means well fitted inhibition curve with a large enough effect; inconclusive means small, poorly fitted or top-dose-only effect, or effect the other way; inactive means flat fitted curve, though single readings scatter; tested in HEK293 cells; further: on the % scale 0 is the no-effect control and ±100 the full control effect; nearly all actives have a fitted effect of over 50% in size; luciferase read-out
# RE007 growth inh: less growth of the S. pombe RE007 Vpr strain | Potency, µM (top dose mostly 92.2 µM), inactives show at the top dose activity change, negative = less growth | 0.21% of 360,000 active | AID 651644 | S. pombe RE007 Vpr strain, BacTiter-Glo ATP luminescence, 24 h; control for the full effect not named in the record; active = well fitted falling curve with a large enough effect; inconclusive = small, poorly fitted or top-dose-only effect; inactive = no such curve, though single readings can be large or run the other way;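 further: on the % scale 0 is the no-effect control and ±100 the full control effect; nearly all actives have a fitted effect of over 50% in size; the assay follows cell death caused by Vpr and the record does not say whether a fall means rescue or toxicity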
#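 Fission yeast strain RE007, carrying one chromosomally integrated HIV-1 vpr copy, was seeded at OD 0.01 in PMG+AL medium with 23 nL pinned compound. After 24 h at 30 °C and 99% humidity, viability was read by BacTiter-Glo luminescence.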
# MARV entry inh: Marburg virus entry inhibition. Marburg virus pseudotyped entry inhibition, cell reporter; control for the full effect not named in the record; about a third of the inactives were read at about 46 µM. 1.8% of 300,000 active. AID 540276. Potency, µM (highest dose often 37.8 µM), for inactives: top-dose activity change, negative = inhibition, most hits filed as inhibitors; active = well fitted inhibition curve with a large enough effect; inconclusive = small, poorly fitted or top-dose-only effect, or effect the other way; inactive = flat fitted curve, though single readings scatter; tested in HEK293 cells; about a fifth of its hits are not listed in these tables; further: on the % scale 0 is the no-effect control and ±100 the full control effect; luciferase read-out
# * hit, by the source's call; ? = inconclusive; nt = no result given; & = joins results of further samples; [ ] = dose if it differs, or a comment. Unless noted, the call rests on the fitted dose curve; in most records, active means well fitted rising curve with a large enough effect; inconclusive means small, poorly fitted or top-dose-only effect; inactive means no such curve, though single readings can be large or run the other way. Potency means the concentration at half of the fitted maximal effect.
# Results follow in this order: Cruzain noTriton	2A StopGo	NS1 function inh	SARS PLpro yeast	Cruzain inh Det	Lassa entry inh	RE007 growth inh	MARV entry inh
NC(=S)Nc1ccc(Cl)cc1Cl
  nt	-7.2%	-0.4%	0.3%	nt	-2.8%	-21.8%	-1.1%
O=C(Nc1nc2ccc(F)cc2s1)Oc1ccccc1
  nt	18.4%	-9.0%	-8.4%	nt	16.3%[46.1 µM]	-18.5%	2.1%[46.1 µM]
O=C(N/N=C/c1cc2c(cc1[N+](=O)[O-])OCO2)c1cccnc1
  nt	-12.4%	2.5%	1.8%	nt	-20.0%	-8.3%	-0.4%[46.1 µM]
Cc1ccccc1C(=O)N(Cc1ccc(N(C)C)cc1)CC1CCCO1 (stereo not drawn)
  -3.3%	8.0%	nt	nt	-0.6%	1.2%[46.1 µM]	nt	3.2%[46.1 µM]
Cc1ccc(Cl)cc1N1CCN(CCN)CC1
  8.6%	19.7%	-1.0%	-0.4%	4.2%	0.0%	0.0%	-4.3%
c1ccc(CC2CCN(C3=Nc4cccc5cccc3c45)CC2)cc1
  -17.1%	?	-141.3%	1.9%	-9.2%	-10.0%	29.3%	16.4µM*
O=C(Cc1ccc(-c2ccccc2)cc1)NNC(=S)NCc1ccco1
  nt	-14.4%	nt	1.0%	nt	?	-2.8%	-30.0%[46.1 µM]
O=C(NCCCNC(=O)c1ccc(-c2cc(Cl)ccc2Cl)o1)c1cnccn1
  nt	?	-25.0%	-5.6%	nt	nt	-3.1%	nt
COc1ccc2c(c1)cc(C(=O)N/N=C/c1c(O)c(C(=O)O)cc3ccccc13)n2C
  nt	13.4%	13.5%	0.5%	nt	nt	-13.4%	nt
CCOC(=O)N1CCC(NC(=O)CCN2C(=O)C3C4C=CC(C4)C3C2=O)CC1 (stereo not drawn)
  12.4%	3.5%	-3.1%	-3.6%	4.2%	9.9%	3.7%	-12.1%
CC1CCCCN1C(=O)COC(=O)c1ccc(=O)n(Cc2ccccc2)n1 (stereo not drawn)
  nt	-11.9%	nt	-1.6%	nt	6.0%	1.1%	-2.6%[46.1 µM]
COc1cc(OC)c(NC(c2nnc(-c3ccccc3)o2)c2ccc(F)cc2Cl)cc1Cl (stereo not drawn)
  -25.1%	-6.1%	nt	nt	-4.0%	1.9%[46.1 µM]	nt	?
Cc1ccc(C(=O)N/N=C\c2cc(Br)c(Br)o2)cn1
  nt	30.7%[activator]	-0.4%	0.0%	nt	?	-4.6%	-22.4%[46.1 µM]
CCOC(=O)c1ccc(Nc2ncnc3nc[nH]c23)cc1
  -13.6%	40.0%[activator]	2.9%	2.4%	0.1%	-20.1%	5.9%	?
Cc1ccc(C(C)NC(=O)C2CCCC2)c(C)c1 (stereo not drawn)
  nt	-16.5%	-7.9%	8.5%	nt	nt	10.8%	nt
CCOC(=O)c1cc(C)n(-c2ccccc2)c1C
  nt	44.2%[activator]	-5.1%	1.1%	nt	-2.1%	-11.6%	28.1%[46.1 µM]
Cc1ccc(NC(=O)Nn2cnnc2)c(C)c1
  nt	0.0%	9.1%	-4.0%	nt	nt	15.1%	nt
Cc1ccn2c(C(=O)NN=C3CCN(C)CC3)c(C)nc2c1
  nt	9.5%	nt	5.2%	nt	?	-10.8%	0.4%[46.1 µM]
CCOC(=O)C1CCCN(C2CCN(Cc3nc(-c4ccccc4)no3)CC2)C1 (stereo not drawn)
  nt	-14.4%	2.9%	0.2%	nt	-14.5%[46.1 µM]	0.8%	9.2%[46.1 µM]
CC(C)c1ccc(CNC(=O)C(=O)Nc2nccs2)cc1
  nt	19.9%	nt	2.2%	nt	-1.8%	-3.9%	?
NC(=O)c1nnn(-c2ccc([N+](=O)[O-])cc2)c1-c1ccccc1
  nt	2.8%	1.8%	1.2%	nt	18.2%[46.1 µM]	10.3%	6.4%[46.1 µM]
Fc1ccc(NC(=S)Nc2ccc3nccnc3c2)cc1
  nt	41.1%[activator]	-2.0%	-1.0%	nt	nt	-12.9%	nt
COc1cccc(/C=C/C(=O)NNC(=O)CCN2CCN(Cc3ccccc3)CC2)c1
  nt	-23.7%	0.0%	-1.3%	nt	-22.2%[46.1 µM]	-6.7%	?
COc1ccc(N2CCN(CCCNC(=O)CC3Oc4ccc(C)cc4NC3=O)CC2)cc1 (stereo not drawn)
  -22.0%	-20.7%	6.2%	-1.1%	-5.1%	nt	11.5%	-1.3%
O=C(CSc1nc2c(c(=O)n1-c1ccc(Br)cc1)SCC2)Nc1nccs1
  -1.2%	-11.2%	4.1%	-2.3%	1.7%	-2.4%	10.2%	11.6%&11.6%[46.1 µM]
CCOC(=O)CC1C(=O)NCCN1C(=O)c1ccc(Cl)c(Cl)c1 (stereo not drawn)
  nt	-10.5%	-4.7%	2.7%	nt	2.3%[46.1 µM]	0.5%	-1.4%[46.1 µM]
COc1cc(C=O)ccc1Oc1ccc(S(=O)(=O)N2CCOCC2)cc1[N+](=O)[O-]
  nt	-14.1%	nt	-6.2%	nt	0.3%	5.4%	-12.9%
COc1ccc(S(=O)(=O)N2CCCC2)cc1C(=O)O
  nt	-5.1%	15.6%	2.6%	nt	nt	6.9%	nt
O=[N+]([O-])c1ccc2nc(NCCCO)nc(-c3ccccc3)c2c1
  ?	-18.3%	-4.3%	7.9%	-11.1%	0.0%	-8.5%	?
Cc1cc(C)n2nc(CCc3ccccc3)nc2n1
  -10.6%	26.5%	-11.0%	5.5%	5.6%	-13.1%	1.7%	?
O=C(NC1CCCCC1)C(c1ccccc1)N(C(=O)c1csnn1)C1CC1 (stereo not drawn)
  nt	2.0%	-1.1%	-1.7%	nt	0.0%	12.4%	-1.5%[46.1 µM]
CN(Cc1cnccn1)C(=O)CC1C(=O)NCCN1Cc1cccc(F)c1 (stereo not drawn)
  nt	-13.9%	8.6%	3.1%	nt	-1.7%	5.1%	-8.3%
Cc1onc(-c2ccccc2)c1C(=O)N1CCN(c2ncccn2)CC1
  nt	-2.8%	4.0%	-0.3%	nt	-12.6%[46.1 µM]	-17.8%	-0.4%[46.1 µM]
Cc1ccccc1S(=O)(=O)NNC(=O)C(=O)NNc1ccccn1
  11.2%	-14.6%	9.6%	11.6%	1.5%	-12.0%	12.7%	-29.2%
CC1=C(c2ccc(C(C)C)cc2)S(=O)(=O)N=C1N1CCC(C(=O)NCc2ccccc2)CC1
  5.8%	-18.5%	nt	nt	-2.0%	?	nt	nt
Cc1ccc(CSc2nc(=O)c3c(n2C)NC(=O)CC3c2ccc(OC(C)C)cc2)cc1 (stereo not drawn)
  -2.0%	-25.3%	nt	nt	-4.9%	11.8%[46.1 µM]	nt	-20.5%[46.1 µM]
O=C(COC(=O)CC12CC3CC(CC(C3)C1)C2)Nc1ncc(Cl)cc1Cl
  -1.2%	0.3%	-4.3%	-11.0%	-9.7%	-4.9%	3.8%	-16.2%
CCOC(=O)CNC(=O)CSc1nnc(-c2c[nH]c3ccccc23)n1CC
  nt	-14.5%	-4.5%	-0.6%	nt	nt	6.8%	nt
CC1(C)CC(=O)C2=C(C1)Oc1nc3ccccc3cc1C2C(C#N)C#N (stereo not drawn)
  -2.2%	8.91µM*	-4.4%	-15.6%	-3.8%	15.8µM*	-5.1%	?
Cc1ccccc1CN1CCN(CC2CC3C=CC2C3)CC1 (stereo not drawn)
  -1.0%	-13.9%	-4.7%	-0.3%	1.2%	-3.5%	-19.0%	?
Cc1ccc(C(=O)COC(=O)C(Cc2c[nH]c3ccccc23)NC(=O)c2ccc(C(C)(C)C)cc2)cc1 (stereo not drawn)
  10µM*	20.5%	nt	nt	2.0%	?	nt	nt
O=C(Cn1[nH]c(=O)c2ccccc2c1=O)OCC(=O)c1ccc(Br)cc1
  nt	-5.8%	nt	1.3%	nt	-11.5%	4.3%	-9.2%[46.1 µM]
CCOc1nc(-c2ccccc2Cl)ccc1C#N
  -7.3%	-22.2%	-3.3%	-1.1%	0.8%	-13.5%	0.1%	-24.1%
CC1(C(=O)O)CCC(C(=O)Nc2ccccc2)C1(C)C (stereo not drawn)
  -1.6%	5.0%	5.5%	?	5.3%	-4.3%	15.8%	19.3%
CCN(CC)C(=O)c1cc2c(=O)n3ccccc3nc2s1
  -12.9%	49.0%[activator]	-8.7%	-1.6%	-21.4%	nt	-13.5%	nt
CC(C)c1cccc(C(C)C)c1NC(=O)CNCc1ccccc1F
  -4.3%	-15.1%	-20.9%	-9.5%	0.9%	-7.0%	-7.4%	-29.7%
CC1(C(=O)NC2CCCCCCC2)CC1(Cl)Cl (stereo not drawn)
  5.3%	6.4%	0.6%	2.3%	5.3%	4.9%	-4.5%	-2.4%
CCN=C1SC(C(=O)Nc2ccc(OCC)cc2)CC(=O)N1CC (stereo not drawn)
  nt	-8.5%	nt	-0.2%	nt	6.3%	-13.4%	7.9%[46.1 µM]
Cc1cc2nc(SCCOC(=O)Nc3ccccc3)nc(C)c2cc1C
  18.5%	0.0%	-28.5%	-20.7%	-6.0%	-13.0%	1.5%	?

# Compound profiles (already shown). Order of values: Cruzain noTriton	2A StopGo	NS1 function inh	SARS PLpro yeast	Cruzain inh Det	Lassa entry inh	RE007 growth inh	MARV entry inh
# Profile of CCN=C1SC(C(=O)Nc2ccc(OCC)cc2)CC(=O)N1CC (stereo not drawn) → nt	-8.5%	nt	-0.2%	nt	6.3%	-13.4%	7.9%[46.1 µM]
# Profile of Cc1cc2nc(SCCOC(=O)Nc3ccccc3)nc(C)c2cc1C → 18.5%	0.0%	-28.5%	-20.7%	-6.0%	-13.0%	1.5%	?
# Profile of CC1(C(=O)NC2CCCCCCC2)CC1(Cl)Cl (stereo not drawn) → 5.3%	6.4%	0.6%	2.3%	5.3%	4.9%	-4.5%	-2.4%
# Profile of CC1(C(=O)O)CCC(C(=O)Nc2ccccc2)C1(C)C (stereo not drawn) → -1.6%	5.0%	5.5%	?	5.3%	-4.3%	15.8%	19.3%
